T cruzi repl = blocks replication of Trypanosoma cruzi. AID 1885. T. cruzi beta-gal in NIH3T3, luminescence, 90 h. 1.4% of 300,000 active. inhibition, % (concentration not given with the values);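 active = mean inhibition across valid replicates above about 55%, limit read from the data; inconclusive = mean below that limit but half or more replicates reach it; inactive = mean below it, under half of replicates reach it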;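 also: signal also drops with host cell toxicity which is not excluded here; 0% = plate median of DMSO wells and 100% = zero luminescence signal; higher percent means less beta-gal luminescence so fewer parasites; stock transfer was 50 nL into about 50 µL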
ALR H2O2 inh = human ALR oxidase inhibition via reduced H2O2 | 3.8% of 290,000 active | P55789 | purified ALR, DTT oxidation, H2O2 HRP-luminol luminescence | AID 485317 | inhibition, % (no concentration beside the values);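 active = mean and each replicate at 75% or more; inconclusive = only one of the two met; inactive = neither met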;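 also: stock transfer was 7.5 nL into about 7.5 µL; 0% = neutral wells and 100% = wells with inactivated enzyme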
Beta cell apopt = blocks beta cell apoptosis. 0.8% of 300,000 active. AID 435005. protection from apoptosis, % (no concentration beside the values). INS-1E cytokine-induced death, ATP luminescence, 48 h; percent of positive-control rescue, neutral wells zero;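 active = all replicates at 75% or more, or half of them and the mean; inconclusive = half reach 75% but not the mean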;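 also: 0% = cytokine-treated negative control wells and 100% = positive control rescue; higher means more ATP so stronger rescue from cytokine killing; wells of about 40 µL received 100 nL stock; the first replicate is given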
B2AR ag = activates human beta-2 adrenergic receptor causing internalization | AID 504454 | P07550 | 0.43% of 340,000 active | Am2.2-beta2AR cells, FAP receptor internalization, flow cytometry; reference of the scale not given here | response, % (test concentration not listed);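 active = response above a set limit, near 3 SD of response in nonfluorescent compounds, cut at about 42% in these data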;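 also: stock transfer was 100 nL into about 11 µL; a reference agonist was the positive control; negative values mostly stem from fluorescent compounds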
Calb FLC = affects C. albicans growth with fluconazole | 0.57% of 300,000 active | C. albicans CaCi-2 (fluconazole-resistant clinical isolate) + fluconazole, Alamar Blue growth, 48 h | growth inhibition, % (concentration not given with the values);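 active = most replicates above 75%; inconclusive = exactly half above 75%; inactive = most below 75%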;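 also: all wells also contain fluconazole at 8 µg/ml as a sub-toxic cotreatment; 0% = median of DMSO wells and 100% = median of geldanamycin control wells; wells of about 8 µL received 7.5 nL stock; the first replicate is given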
LANA-H2A inh = blocks KSHV LANA binding to histone H2A/H2B; 0.6% of 320,000 active; cell-free LANA-H2A/H2B peptide, fluorescence polarization; inhibition, % (test concentration not listed); AID 2629; in the data active = inhibition mostly above about 10%, no sharp cut-off; inactive = mostly below about 6.7%;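 also: stock transfer was 7.5 nL into about 10 µL; 0% = median of vehicle wells and 100% = median of positive control wells; one replicate is shown; the record names a cut of 25% in any replicate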
Target sequence (Q9QR71 whole entry, looked up): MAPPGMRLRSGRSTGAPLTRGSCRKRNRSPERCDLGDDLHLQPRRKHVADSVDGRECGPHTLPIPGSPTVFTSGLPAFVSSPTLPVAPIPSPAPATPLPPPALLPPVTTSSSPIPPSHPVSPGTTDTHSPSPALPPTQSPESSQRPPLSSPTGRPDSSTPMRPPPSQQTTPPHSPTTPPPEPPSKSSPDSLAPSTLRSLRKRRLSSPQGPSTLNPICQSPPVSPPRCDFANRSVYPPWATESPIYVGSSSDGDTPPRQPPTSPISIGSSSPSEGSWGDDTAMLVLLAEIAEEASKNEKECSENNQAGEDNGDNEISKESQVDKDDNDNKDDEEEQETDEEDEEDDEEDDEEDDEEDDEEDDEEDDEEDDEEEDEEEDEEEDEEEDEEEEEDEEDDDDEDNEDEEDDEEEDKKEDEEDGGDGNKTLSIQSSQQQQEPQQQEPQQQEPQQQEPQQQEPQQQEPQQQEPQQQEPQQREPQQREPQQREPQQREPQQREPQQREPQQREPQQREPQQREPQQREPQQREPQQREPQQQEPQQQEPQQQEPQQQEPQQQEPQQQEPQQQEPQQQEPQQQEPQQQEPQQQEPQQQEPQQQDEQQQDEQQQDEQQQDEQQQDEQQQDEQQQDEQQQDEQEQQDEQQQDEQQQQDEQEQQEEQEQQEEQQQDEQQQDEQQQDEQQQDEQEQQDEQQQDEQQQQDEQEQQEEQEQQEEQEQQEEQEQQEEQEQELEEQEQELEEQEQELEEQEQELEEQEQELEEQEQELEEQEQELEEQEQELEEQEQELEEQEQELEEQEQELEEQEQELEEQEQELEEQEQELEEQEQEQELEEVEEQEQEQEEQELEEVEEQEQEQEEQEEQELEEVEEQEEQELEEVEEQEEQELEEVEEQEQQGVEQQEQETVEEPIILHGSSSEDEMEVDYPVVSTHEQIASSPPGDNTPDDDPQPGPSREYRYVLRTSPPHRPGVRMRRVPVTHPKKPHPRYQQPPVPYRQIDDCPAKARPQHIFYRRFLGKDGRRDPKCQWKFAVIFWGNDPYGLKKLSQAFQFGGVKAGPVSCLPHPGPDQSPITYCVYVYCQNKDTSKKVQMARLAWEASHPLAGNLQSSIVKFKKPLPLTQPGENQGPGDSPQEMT
A1 inh = inhibitors of the anti-apoptotic protein A1, read as caspase activation | MEF A1-2A-BIM cells, Caspase-Glo 3/7 luminescence, 3 h; percent of clofoctol response, vehicle zero | caspase activation, % (no concentration beside the values) | 0.066% of 330,000 active | AID 2462;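 active = over half of replicate activation scores above 10%, or exactly half above 10 with the replicate mean above 10; inconclusive = replicate mean below 10 yet half the replicates above 10; inactive = over half of replicates below 10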;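 also: wells of about 30 µL received 50 nL stock; many hits fall short of the cut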
rRNA inh HTS = selective bacterial rRNA inhibition in E. coli. E. coli WT GFP vs humanized-ribosome RFP mutants, fluorescence, 24 h; active compounds read low; DMSO median 0, no signal -100. GFP signal change (wild-type ribosome), % (no concentration beside the values). 1.6% of 350,000 active. AID 720706;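 active = significant combined selectivity score with lowered wild-type GFP, culture density cut under 30%, mutant RFP and density less affected; inactive = any of these conditions unmet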; also: one replicate is shown; some compounds called inactive have numbers as strong as hits
rRNA inh HTS OD600 = also measured in rRNA inh HTS; calls as there; OD600 change, %; measured here: OD600 growth;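 optical density of the mix in the first replicate; 0 = DMSO median and -100 = no signal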
rRNA inh HTS RFP = also measured in rRNA inh HTS; calls as there; RFP signal change, %; measured here: RFP humanized mutant strains;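 first replicate; 0 = DMSO median and -100 = no signal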
* = called active by the depositor; ? = inconclusive; . = no result given. A portion of the library (hit frequency here may not be typical).

SMILES	T cruzi repl	ALR H2O2 inh	Beta cell apopt	B2AR ag	Calb FLC	LANA-H2A inh	A1 inh	rRNA inh HTS	rRNA inh HTS OD600	rRNA inh HTS RFP
CCc1ccc2c(c1)C1(C(=O)N2)N2CCCC2C(C(=O)c2ccc3ccccc3c2)C12C(=O)Nc1ccccc12 (stereo not drawn)	26	.	121*	26	5	-4.5	0.2	1	-2	17
Cc1cc(CN(C)C(=O)c2cc(COc3ccc4ncccc4c3)on2)on1	4	-9	39	-2	-7	-3.3	0.4	-11	-7	-7.7
Oc1ccc(N=Cc2cc(Br)c(N3CCOCC3)o2)cc1	-6	86*	.	-2	-1	-3.2	0.9	12	-5	2.2
Cc1ccc(NC(=O)CN(C)C(=O)COC(=O)C(C)(C)Oc2ccc(Cl)cc2)cc1	5	1	-6	8	3	-1.3	?	-18	-47	4.4
Cc1cc(NC(=O)c2ccc([N+](=O)[O-])cc2)no1	-15	-2	.	1	-9	2.1	-0.5	12	12	3.0
COc1cc(C(=O)OCCCN(C)C)cc(OC)c1OC	2	-16	3	-3	-3	-7.1	0.4	2	5	-2.7
Cc1csc(NS(=O)(=O)c2ccc(Cl)cc2)n1	3	1	1	7	-1	-2.1	-0.3	-13	-11	-0.3
CCOc1ccc(CN(C)C(=O)CNC(=O)c2ccccc2)cc1	-8	-2	2	6	4	-0.3	0.4	2	6	0.8
O=C(NCC(=O)N1CCN(c2ccc([N+](=O)[O-])cc2)CC1)c1ccco1	.	-3	-3	-13	.	-4.4	0.9	3	11	-0.2
C=CCn1c(SCC(=O)Nc2c(C)n(C)n(-c3ccccc3)c2=O)nc2sc(C)c(-c3ccccc3)c2c1=O	11	-5	.	-2	24	-2.2	-1.7	.	.	.
CCOc1ccc(C2c3c(oc4ccccc4c3=O)C(=O)N2CCCN2CCOCC2)cc1OCC (stereo not drawn)	-8	11	-5	-8	16	0.7	-0.2	11	14	-1.4
CC(=O)Nc1ccc(NC(=O)CCCc2c[nH]c3ccccc23)cc1	-3	26	-3	21	21	2.2	-0.5	0	10	-7.4
COc1cc2oc(=O)ccc2cc1[C@@H](O)[C@@H]1OC(C)(C)OC1(C)C	.	3	-1	-12	.	1.9	0.1	7	8	-7.3
O=S(=O)(c1cc(Cl)ccc1Cl)n1cccn1	-1	-2	-7	-3	-7	1.1	1.7	14	2	-3.1
CCOC(=O)N1CCC(NC(=O)c2ccc3c(c2)sc2nc(-c4ccccc4)cn23)CC1	.	-3	24	19	.	-2.0	-0.5	.	.	.
COCc1cc(C)nc2sc3c(=O)oc(C)nc3c12	-2	6	2	9	38	-0.7	-1.0	.	.	.
O=c1[nH]c2sc3c(c2c2nncn12)CCCC3	-3	17	-2	8	3	-0.9	-0.1	.	.	.
CC1CC(C)CN(CCCNC(=O)c2ccc3c(c2)NC(=O)C(N2CCCCC2)S3)C1 (stereo not drawn)	22	.	0	31	.	-6.1	0.2	.	.	.
COC(=O)CN(Cc1ccco1)S(=O)(=O)c1ccccc1	-12	22	-4	7	2	8.6	-0.9	.	.	.
COC(=O)C1CCN(c2cc(=O)n(-c3ccc(OC)cc3)c(=O)[nH]2)CC1	-7	.	1	-4	1	3.5	0.5	8	17	-1.4
O=C(CCCc1nc2ccccc2s1)NCc1cccnc1	-20	19	2	-4	0	2.5	-0.2	10	3	-1.9
COc1ccc(C(=O)OCn2nnc3ccccc3c2=O)cc1OC	-3	-2	7	3	5	2.6	0.9	.	.	.
O=C(CSc1ccc2nnc(CCNC(=O)c3ccccc3)n2n1)NCc1ccccc1	4	-3	.	1	7	-1.2	-0.1	.	.	.
COc1ccc(CNS(=O)(=O)c2ccccc2Br)cc1	-29	0	.	.	12	1.1	3.6	.	.	.
COc1ccccc1CNC(=O)CN(C)CC(=O)Nc1ccc(F)c(F)c1F	.	-4	2	5	.	1.9	2.2	-1	7	1.2
CC1=C(C(=O)OCc2ccccc2)C(c2ccc3ccccc3c2)NC(=O)N1CCCC(=O)O (stereo not drawn)	-10	2	-1	0	-1	-2.1	0.5	-16*	4.5*	0.3*
Cc1ccccc1NC(=S)N(CCCN1CCOCC1)Cc1ccccn1	-13	-3	-3	-2	3	4.6	-0.2	.	.	.
COC(=O)C1CCN(C(=O)C2CCC(=O)N(CCc3cccc(F)c3)C2)CC1 (stereo not drawn)	-16	-5	-2	10	2	-1.9	0.8	10	8	-0.4
C=CCNC(=O)C1CC(=O)N(c2ccc(OCc3ccccc3Cl)cc2)C1 (stereo not drawn)	6	.	-4	-6	-8	-6.4	-3.9	-5	-3	3.0
Brc1ccc(-c2csc(NNC3=NCCCCC3)n2)cc1	26	34	16	-10	-4	1.6	0.1	.	.	.
O=C(CCC1CCCN(C(=O)c2ccccc2Cl)C1)N1CCN(c2ccccn2)CC1 (stereo not drawn)	10	-2	2	-4	-4	1.0	0.0	-10	-4	-1.6
CCOC(=O)C1(CCOc2ccccc2)CCN(Cc2cccc(OC)c2OC)CC1	24	.	.	-2	22	-6.1	0.1	-7	-3	1.5
O=C(Nc1nc2ccccc2s1)C1CC(=O)N(c2ccc(Cl)cc2)C1 (stereo not drawn)	0	-9	-5	-3	-2	6.6	1.5	.	.	.
COc1ccc(-c2nc3oc4cc(OC)ccc4c(=O)c3c(=O)n2Cc2ccco2)cc1	14	0	9	-3	12	-4.5	-0.4	.	.	.
COc1ccc(CNC(=O)CN(C(=O)c2csnn2)c2cccc3ccccc23)cc1	0	-151	1	5	6	-0.1	-0.8	-3	-4	1.8
CCCc1nnc(NC(=O)c2cccc(OC)c2)s1	0	.	-1	12	-3	-0.3	0.3	-1	-2	-1.3
COC(=O)N/N=C/c1ccc(/C=N/NC(=O)OC)cc1	-10	-1	-2	-2	-15	-2.4	0.7	15	5	1.0
O=C(NCCCN=C1NS(=O)(=O)c2ccccc21)c1ccc(S(=O)(=O)N2CCCCC2)cc1	-7	-9	.	-5	0	-4.1	1.1	.	.	.
c1ccc2c(c1)CCc1c-2nc2ccccc2c1N1CCOCC1	21	2	0	6	-8	-6.8	0.1	-17	13	0.9
Cc1csc(NC(=O)c2sccc2C)n1	-7	-1	14	-8	-1	-2.8	-7.2	3	0	4.4
CCCOc1ccc2c(CC)cc(=O)oc2c1C	13	12	-3	16	-2	-1.7	0.5	.	.	.
CC/C(C)=N/NC(=O)c1[nH]c2ccc(C)cc2c1-c1ccccc1	7	-7	-5	15	-5	-11	1.0	-6	-4	-0.3
COc1cc(C(=O)NCc2nnc(SCC(=O)N3CCc4ccccc43)o2)cc(OC)c1OC	-1	-7	.	-1	1	1.4	-0.6	.	.	.
C=CCN1C(=O)c2ccc(C(=O)Nc3ccccn3)cc2C1=O	-9	.	-6	-10	0	-0.3	-1.0	11	18	-0.1
COc1ccccc1C1CCN(C(=O)c2ccccc2)CC1	-3	-3	-2	0	0	-4.9	0.2	-10	-13	0.5
COc1ccc(S(=O)(=O)NC(C)C(=O)O)cc1 (stereo not drawn)	-3	15	-2	-13	-3	0.0	-0.2	24	16	2.2
CCOCCCNC(=O)C1CCN(S(=O)(=O)c2cc(Br)cc3c2N(C(=O)CC)CC3)CC1	10	.	6	-16	-5	-5.7	-0.1	-3	-6	-1.2
COc1cc(C2C(C#N)=C(N)Oc3n[nH]c(C)c32)cc2c1OCO2 (stereo not drawn)	-9	.	-7	9	-3	2.9	0.2	.	.	.
C#CCNC(=O)c1cc2sccc2n1C	-6	-4	2	-15	-7	8.0	0.5	1	4	-0.6
CCN1C(N(C)CCc2c[nH]c3ccccc23)=N[C@@H](c2cccc(C(F)(F)F)c2)C(C(=O)OC)=C1C	.	-1	7	37	.	0.4	0.8	.	.	.

One compound at a time, from the list above.
CCOCCCNC(=O)C1CCN(S(=O)(=O)c2cc(Br)cc3c2N(C(=O)CC)CC3)CC1 in the list: T cruzi repl: 10; ALR H2O2 inh: .; Beta cell apopt: 6; B2AR ag: -16; Calb FLC: -5; LANA-H2A inh: -5.7; A1 inh: -0.1; rRNA inh HTS: -3; rRNA inh HTS OD600: -6; rRNA inh HTS RFP: -1.2
COc1ccccc1C1CCN(C(=O)c2ccccc2)CC1 in the list: T cruzi repl: -3; ALR H2O2 inh: -3; Beta cell apopt: -2; B2AR ag: 0; Calb FLC: 0; LANA-H2A inh: -4.9; A1 inh: 0.2; rRNA inh HTS: -10; rRNA inh HTS OD600: -13; rRNA inh HTS RFP: 0.5
CCCOc1ccc2c(CC)cc(=O)oc2c1C in the list: T cruzi repl: 13; ALR H2O2 inh: 12; Beta cell apopt: -3; B2AR ag: 16; Calb FLC: -2; LANA-H2A inh: -1.7; A1 inh: 0.5; rRNA inh HTS: .; rRNA inh HTS OD600: .; rRNA inh HTS RFP: .

Additional compounds
SMILES	T cruzi repl	ALR H2O2 inh	Beta cell apopt	B2AR ag	Calb FLC	LANA-H2A inh	A1 inh	rRNA inh HTS	rRNA inh HTS OD600	rRNA inh HTS RFP
CN(C)CCNc1oc(COc2cccc(Cl)c2)nc1C#N	-12	13	-2	2	-4	-3.8	0.3	.	.	.
Cc1cc2nnc(SCC(=O)Nc3ccc(Cl)cc3)n2c(N)n1	-6	-4	5	-11	-15	5.3	0.0	-4	-5	-3.3
N#Cc1ccc(COC(=O)CSc2nnc(C3CCCCC3)n2N)cc1	8	3	.	-3	16	1.2	1.8	.	.	.
N#Cc1ccccc1NC(=O)C(=O)NCCCN1CCCC1=O	-14	-5	.	1	3	-2.3	0.1	-2	2	-0.8
Cc1c(-c2ccccc2)nnn1-c1ccc(F)cc1F	-4	63	-5	4	1	6.7	-1.7	-6	2	-1.8
COc1ccc(NC(=O)N(C)C[C@H]2Oc3ccc(NC(=O)NC(C)C)cc3C(=O)N([C@H](C)CO)C[C@@H]2C)cc1	.	-15	-3	-1	.	4.7	?	2	4	-1.4
Cc1ccc(N2CC(C(=O)Nc3nnc(SCCN4CCOCC4)s3)CC2=O)cc1 (stereo not drawn)	0	-4	4	8	-6	-1.4	-0.6	-1	1	3.7
CCOC(=O)N1CCN(CCC(=O)c2ccc(OC)cc2)CC1	3	10	-15	2	21	-2.1	0.1	10	10	0.1

Grouped by structure, the compounds so far with a COOH group
SMILES	T cruzi repl	ALR H2O2 inh	Beta cell apopt	B2AR ag	Calb FLC	LANA-H2A inh	A1 inh	rRNA inh HTS	rRNA inh HTS OD600	rRNA inh HTS RFP
CC1=C(C(=O)OCc2ccccc2)C(c2ccc3ccccc3c2)NC(=O)N1CCCC(=O)O (stereo not drawn)	-10	2	-1	0	-1	-2.1	0.5	-16*	4.5*	0.3*
COc1ccc(S(=O)(=O)NC(C)C(=O)O)cc1 (stereo not drawn)	-3	15	-2	-13	-3	0.0	-0.2	24	16	2.2

Screening data (PubChem BioAssay)
